# HPGD block = blocks human HPGD enzyme activity; P15428; purified HPGD, NADH fluorescence kinetic, PGE2 substrate; Potency, µM, for inactives: at the highest dose activity change, negative = inhibition, usual class: inhibitors; 4.3% of 150,000 active; AID 894; active = well fitted inhibition curve with a large enough effect (not every such curve was filed as active); inconclusive = small, poorly fitted or top-dose-only effect, or another doubt; inactive = no such curve, though single readings can be large or run the other way;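 further: top concentration of the series not given in the record; plate controls included wells without enzyme; inactives centre near -10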
# Target sequence (P15428 whole entry, looked up): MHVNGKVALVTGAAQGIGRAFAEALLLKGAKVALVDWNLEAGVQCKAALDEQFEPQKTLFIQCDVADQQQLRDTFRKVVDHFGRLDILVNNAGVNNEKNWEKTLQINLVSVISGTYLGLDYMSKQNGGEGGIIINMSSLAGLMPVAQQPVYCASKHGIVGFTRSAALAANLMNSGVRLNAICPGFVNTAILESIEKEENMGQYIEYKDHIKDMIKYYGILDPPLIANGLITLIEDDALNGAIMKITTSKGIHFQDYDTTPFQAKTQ
#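 NADH formation kinetics: reaction with 30 uM PGE2 and 1 mM NAD+ (final), 20 nM enzyme, Tris-HCl pH 8 with Tween 20, after 15 min compound preincubation at room temperature. Fluorescence change, last versus first of five reads.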
# An asterisk follows results filed as active; ? = inconclusive; & = joins results of further samples. On the % scale 0 is the no-effect control and ±100 the full control effect; potency means the concentration at half of the fitted maximal effect. A portion of the library (hit frequency here may not be typical).
Structure | HPGD block
CC(NC(=S)Nc1ccccc1)C1COc2ccccc2O1 (centres undefined) | -2%
S=C(NCc1ccc(Cl)cc1Cl)NC1CCCCC1 | ?
C/C(=N\NC(=O)COc1ccc(C(C)(C)C)cc1)c1ccc(N2CCOCC2)cc1 | ?
O=C(Nc1cccc(S(=O)(=O)Nc2ccccc2Cl)c1)c1ccc(N2CCCC2)c([N+](=O)[O-])c1 | -18%
Cn1c(SCC(=O)Nc2ccc3cn[nH]c3c2)nnc1-c1cnccn1 | -9%
O=C(C1CCCCN1S(=O)(=O)c1ccccc1)N1CCN(C(c2ccccc2)c2ccccc2)CC1 (centres undefined) | -27%
CCN(CC)C(=O)c1sc(NC(=O)c2ccc3c(c2)OCO3)c(C#N)c1C | 6.3µM*
CCn1c(SCC(=O)NCc2ccccc2)nc2c(c1=O)SC(C)C2 (centres undefined) | 2%
CN(C)S(=O)(=O)N1CCC(CCCC2CCN(S(=O)(=O)N(C)C)CC2)CC1 | -2%
CCOC(=O)CSc1nc2ccccc2c(=O)n1CC | -13%
O=C(NCCc1nc2ccccc2[nH]1)Nc1ccccc1 | 0%
CCOc1ccc(CCNC(=O)Cn2cccc2C(=O)c2ccccc2)cc1OCC | -15%
Cc1ccc(S(=O)(=O)N2CCC(=O)N(C(CO)Cc3ccccc3)CC2)cc1 (centres undefined) | -13%
CC1CCCCC1NC(=O)c1ccc(N2CCCC2=O)cc1 (centres undefined) | -22%
CN(C)S(=O)(=O)c1cccc(NC(=O)COC(=O)C2(c3ccccc3F)CCCC2)c1 | -5%
O=C(O)c1ccnc(SCC(=O)c2ccccc2)c1 | -4%
CC1=C(C(=O)OCCOc2ccccc2)C(c2ccc(C)o2)C2=C(CC(C)(C)CC2=O)N1 (centres undefined) | ?
COc1ccccc1NC(=O)c1ccc(NS(=O)(=O)c2cccc3cccnc23)cc1 | -4%
COc1ccc(NC(=O)Cc2c(SC)c3ccccc3n2Cc2ccccc2)cc1 | -8%
O=C(NNC(=O)c1cc(-c2ccc(Cl)c(Cl)c2)nc2ccccc12)Nc1ccccc1 | -4%
CCOC(=O)C(C)Sc1nc2c(c(=O)[nH]c(=O)n2C)n1C/C=C(/C)Cl (centres undefined) | 22µM*
CN1CCN(NC(=S)NC2CCCCC2)CC1 | -10%
CCOC(=O)N1CCN(C(=O)CSc2nnc(-c3c[nH]c4ccccc34)n2CCOC)CC1 | 4%
Cc1cc(C(C)(C)C)oc1C(=O)N(CC(=O)NC1CCCC1)Cc1ccccc1 | -9%
O=C(CCS(=O)(=O)c1cccs1)Nc1ccc(C(=O)NCc2ccccc2)cc1 | -17%
CCOC(=O)CSc1nc2ccccc2n1CC(=O)N1CCN(c2ccccc2)CC1 | -4%
O=C(NCCCN1CCOCC1)c1ccc(CS(=O)(=O)Cc2ccccc2Cl)o1 | 8%
O=S(=O)(Nc1ccc(Cc2ccncc2)cc1)c1ccc(Br)s1 | -23%
Cc1ccc2cccc(Oc3ncnc4sc(C)c(C)c34)c2n1 | -4%
O=C(CCn1c(=O)oc2ccccc21)NCCN1CCc2ccccc2C1 | -15%

# Gathered by group: the compounds so far with two or more sulfur atoms.
Structure | HPGD block
CCn1c(SCC(=O)NCc2ccccc2)nc2c(c1=O)SC(C)C2 (centres undefined) | 2%
CN(C)S(=O)(=O)N1CCC(CCCC2CCN(S(=O)(=O)N(C)C)CC2)CC1 | -2%
O=C(CCS(=O)(=O)c1cccs1)Nc1ccc(C(=O)NCc2ccccc2)cc1 | -17%
O=S(=O)(Nc1ccc(Cc2ccncc2)cc1)c1ccc(Br)s1 | -23%

# Remaining list, next part.
Structure | HPGD block
COc1cc(OC)cc(-c2nnc(SCC(=O)N(Cc3ccccc3)C(C)(C)C)o2)c1 | -21%
Cn1c(CCN2CCCCC2)nc2cc(NS(=O)(=O)c3ccccc3)ccc21 | -1%
NC(=O)c1ccsc1NC(=O)c1nc(-c2ccccc2)n(-c2ccccc2)n1 | ?
O=C(CSc1nnc(CNC(=O)c2c(F)cccc2Cl)o1)c1ccccc1 | -19%
Cc1cc(C)c(S(=O)(=O)N(CC(=O)O)CC(=O)O)c(C)c1 | -6%
Cn1c(NNC(=O)c2ccc(C(C)(C)C)cc2)cc(=O)n(C)c1=O | -7%
CC(C)(C)NC(=O)CON=C1c2ccccc2-c2ccccc21 | ?
O=C(Nc1cccc(S(=O)(=O)NC2=NCCCCC2)c1)c1cc(-c2ccccc2)nc2ccccc12 | -13%
COc1ccc(-c2nnc(SCC(=O)NNC(=O)c3ccc(C)cc3)o2)cc1 | -1%
COc1ccccc1N1CCN(C(=O)C(C)N(c2ccc(C)c(C)c2)S(C)(=O)=O)CC1 (centres undefined) | -2%
CCOC(=O)c1ccc2[nH]c3c(c2c1)CN(C)CC3 | -18%
CCc1ccc(NC(=S)N(CCCN2CCN(C)CC2)Cc2cccs2)cc1 | -4%
Nc1cc(Cl)nc(N/N=C/c2ccc([N+](=O)[O-])cc2)n1 | -10%
O=C(CN1CCCC1)Nc1c2c(nc3ccccc13)N(Cc1ccccc1)CC2 | ?
O=C(c1cnccn1)N1CCC[C@@]2(CCN(Cc3cc(C(F)(F)F)cc(C(F)(F)F)c3)C2)C1 | -8%
CC1CCc2nn(CC(=O)NCCCN3CCOCC3)cc2C1 (centres undefined) | -2%
O=C1CC(Cc2ccccc2)C(=O)N1c1ccc(Cl)cn1 (centres undefined) | -3%
COc1cc(OC)cc(C(=O)NNC(=O)c2ccccc2Br)c1 | -3%
Cc1sc2ncnc(-n3cnc4ccccc43)c2c1C | -28%
CCCOC(=O)c1ccc(Oc2c(-c3ccc(OC)cc3O)n[nH]c2C)cc1 | -8%

# Taken from the entries so far, two compounds:
Structure | HPGD block
CCOC(=O)c1ccc2[nH]c3c(c2c1)CN(C)CC3 | -18%
CCc1ccc(NC(=S)N(CCCN2CCN(C)CC2)Cc2cccs2)cc1 | -4%

# (list continues)
Structure | HPGD block
CC1(C)CC(=O)c2c(n(-c3cccc4ccccc34)ccc2=O)C1 | 6%
CC(C)CNC(=O)CSc1nnc(-c2cccc(S(=O)(=O)N3CCCCC3)c2)o1 | -22%
CCOC(=O)CC1C(=O)NC2CCCCC2N1C(=O)Nc1ccc(Cl)cc1 (centres undefined) | -19%
CCN(c1nc(C)cc(OC)n1)S(=O)(=O)c1ccccc1 | -8%
C[C@@H](C(=O)O)/C(=C/c1ccc2c(c1)OCO2)C(=O)O | -11%
Cc1cccc(CCNC(=O)C2CCN(S(=O)(=O)c3c(C)nn(C)c3C)CC2)c1 | -4%
O=C(O)c1cnc(-c2ccccc2)nc1Sc1ccccc1 | 14µM*
CN(C)CCC1Sc2ccccc2Oc2ccccc21 (centres undefined) | -5%
CCc1nnc(NC(=O)CSc2nnc(Cc3ccccc3)n2-c2ccccc2)s1 | -8%
CCOc1cc(C(=O)NCC(C)CN(C)C)cc(OCC)c1OCC (centres undefined) | -6%
COC(=O)[C@@]1(Cc2ccccc2)[C@H]2c3cc(C(=O)N(C)C)n(Cc4ccsc4Br)c3C[C@H]2CN1C(=O)c1ccccc1 | -4%
Cn1cc(CNC(=O)C2CCCCC2)cn1 | -14%
O=C(COC(=O)CCc1nc2ccccc2s1)Nc1nc(-c2ccccc2)cs1 | -5%
CCOC(=O)c1ccc(NC(=O)Nc2ccn(C)n2)cc1 | -9%
CC#CCN(CC#CC)S(=O)(=O)c1ccc(S(=O)(=O)N2CCOCC2)cc1 | -7%
CCCc1nnc(SCC(=O)O)n1/N=C/c1ccc2c(c1)OCO2 | -25%
CN(c1ccccc1)S(=O)(=O)c1cccc(NC(=O)CSc2ncn[nH]2)c1 | -25%
Cc1cc(SCC(=O)Nc2ccccc2)nc(C)n1 | -13%
COc1ccc2c(c1)-c1nc(/N=C/c3ccc(O)cc3)sc1CC2 | -26%
CCC(=O)N(CC)Cc1cc(=O)[nH]c2ccccc12 | -11%
Cc1cccc(N(C(=O)CCC(=O)Nc2cccnc2)C(C(=O)NC2CCCC2)c2ccncc2)c1 (centres undefined) | -13%
Cc1ccccc1Cn1cnc2ccccc2c1=O | -2%
CC(Sc1nc2ccccc2[nH]1)C(=O)Nc1ccc2c(c1)OCCO2 (centres undefined) | -13%
Cc1nc2c3ccccc3n(CC(=O)c3ccc(F)cc3)c(=O)n2n1 | -12%
Cc1ccc(S(=O)(=O)c2c(N)n(CCC(C)C)c3nc4ccccc4nc23)cc1 | ?
O=C(O)C1OC(C(=O)O)C2C1C(F)(F)C2(F)F (centres undefined) | 1%
Cc1cc(-c2ccccc2)nc(SCC(=O)c2cccc([N+](=O)[O-])c2)n1 | -9%
O=c1/c(=C/c2ccco2)sc2n1CN(c1ccccc1)CN=2 | -18%
Cc1c(Cl)cccc1Nc1nc(N)nc(CSc2nc3ccccc3s2)n1 | -13%
COc1ccccc1CO/N=C/c1cccn1-c1nccc(N(C)C)c1C#N | -5%

# Additional structures.
Molecule,HPGD block
COc1ccccc1N1CCN(C(=O)C2CCN(S(=O)(=O)N3CCOCC3)CC2)CC1,-7%
O=C(Nc1cccc(S(=O)(=O)NC2=NCCCCC2)c1)c1cc(-c2ccccc2Cl)nc2ccccc12,?
CCOC(=O)c1sc2nc(N3CCOCC3)c3c(c2c1N)CCC3,?
O=C(Nc1ncn[nH]1)c1cc(S(=O)(=O)Nc2ccc(Cl)cc2)ccc1Cl,1%
Cc1ccc(Cl)c(OCCN2CCCC(C)C2)c1 (centres undefined),5%
Cc1ccc(S(=O)(=O)Nc2ccc(NC(=O)CN3CCCCC3)c(Cl)c2)cc1,-30%
Cc1ccc2cc(CCNC(=O)c3ccc(C)c([N+](=O)[O-])c3)c(=O)[nH]c2c1,-10%
Cc1ccc2nc(Nc3nc(=O)c4ccccc4n3C)nc(C)c2c1,-18%
COC(=O)[C@@]1(Cc2ccc(F)cc2)[C@H]2c3cc(C(=O)N(C)C)n(CCc4ccccn4)c3C[C@H]2CN1C(=O)c1ccccc1,-6%&-3%
C=CCSc1nc2c(cnn2-c2ccc(C)c(C)c2)c(=O)[nH]1,-12%
Cn1cnnc1SCC(=O)Nc1ccccc1,-14%
CCn1c(=O)c2cc(C(=O)N3CCN(C)CC3)sc2c2ccccc21,?
CC(=O)Nc1c(C(=O)N2CCOCC2)sc2nc3c(cc12)COC(C)(C)C3,-21%
CC(CN1CCOCC1)OC(=O)c1cccs1 (centres undefined),-7%
COc1ccc(OC)c(NC(=O)C2C3CC4OC(=O)C2C4C3)c1 (centres undefined),-21%
COc1ccc(N2CCN(CCNC(=O)c3c(C)cc(=O)oc3C)CC2)cc1,-10%
CCCOC(=O)c1ccc(-c2ccc(C=O)o2)cc1,-27%
Cc1cc(C)c2c(=O)[nH]n(C3CC(C)N(C)CC3C)c2n1 (centres undefined),-9%
CCN(CC)C(=O)CSc1nnc([C@@H](NC(=O)OC(C)(C)C)C(C)C)o1,0%
Cc1cccc(N(C(=O)CCC(=O)Nc2cc(C)on2)C(C(=O)NC2CCCC2)c2ccncc2)c1 (centres undefined),-12%
CCc1cc2c(=O)n(-c3ccccc3)c(=S)[nH]c2s1,?
COc1ccc(-n2c(SCc3nnc(-c4ccccc4)o3)nnc2-c2ccccc2)cc1,-9%
CCN(CC)S(=O)(=O)c1cc([N+](=O)[O-])ccc1NNC(=O)Nc1ccc(Cl)c(Cl)c1,-23%
c1csc(-c2csc3ncnc(NCCCN4CCOCC4)c23)c1,-16%
OCCN(Cc1ccccc1)Cc1ccc(F)c(F)c1,5%
Cc1csc(NC(=O)CSc2nnc(C)s2)n1,-10%
COc1ccc(C2CC2/C(=N/OC(=O)c2cccs2)c2ccccc2)cc1 (centres undefined),-11%
COc1ccc(C(=O)COc2ccccc2N2C(=O)C3C4C=CC(C4)C3C2=O)cc1 (centres undefined),-5%
Cc1ccc(N2C(S)=C(C#N)C(=O)NC23CCCCC3)cc1,-11%
CS(=O)(=O)N1CCC2(CC1)CN(C(c1ccccc1)c1ccccc1)C2,-11%
COC(=O)CSc1nnc(CNc2ccc(F)cc2)o1,-3%
Cc1cc(N/C=C/C(=O)c2ccc(Br)cc2)no1,-6%
COc1ccc(N2CCN(Cc3nc4ccsc4c(=O)[nH]3)CC2)cc1,-3%
COc1cccc(C(=O)NC(=S)Nc2ccc(N(C)C)cc2)c1,-17%
O=C(CSCc1ccccn1)Nc1ccccc1,-1%
O=C(Nc1ccc2ccccc2c1)c1cccnc1,-8%
Cc1cc(C)c(COc2ccc(/C=N/n3c(C)n[nH]c3=S)cc2)c(C)c1,10µM*
Cc1[nH]n(-c2cccc3ccccc23)c(=O)c1/C=N/c1sc2c(c1C#N)CCC2,?
Cn1c(=O)c2c(SCc3ccccc3)nc(-c3ccco3)nc2n(C)c1=O,-4%
COc1ccc(N=Cc2nc(-c3ccccc3)oc2OC(=O)c2ccccc2)cc1,22µM*
COc1ccc2cnnc(SCC(=O)Nc3ccc(C(C)=O)cc3)c2c1OC,-14%
COC(=O)c1cc(OC)c(OC)cc1NC(=O)C(C)Sc1ccc(C)cc1 (centres undefined),-20%
O=C(NNC(=S)NC(=O)C12CC3CC(CC(C3)C1)C2)c1ccncc1,-12%
Cc1nnc(Sc2c(N)n(C)c(=O)[nH]c2=O)s1,-2%
CN1CCCC1CCOC(C)(c1ccccc1)c1ccc(Cl)cc1 (centres undefined),-7%
Nc1nc2c(s1)C(=O)CC(c1ccccc1)C2 (centres undefined),-11%
CCOC(=O)Cn1nc(Cc2ccccc2)c2ccccc2c1=O,-12%
Cc1ccc(CNC(=O)CCNC(=O)Cn2ccc3ccccc3c2=O)o1,-7%
CCOC(=O)C1CCCN(C(=O)c2sc3nc(C)nc(N(CC)CC)c3c2C)C1 (centres undefined),14µM*
CC1CCN(S(=O)(=O)c2ccc(S(=O)(=O)N3CCC4(CC3)OCCO4)cc2)CC1,-10%
C=CCn1c(O)c(N=NC(=O)OCC)c2ccccc21,-1%
COc1ccccc1NC(=O)Cc1noc(CSc2nnc(N)s2)n1,-9%

# Screening results: PubChem BioAssay, National Center for Advancing Translational Sciences (NCATS)
